# Arbovirus inh: blocks arbovirus infection. 200,000 tested, 0.37% active. inhibition, % at 10 µM. arbovirus infection cell-based antiviral screen. AID 1251;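 active = inhibition from about 30%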;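 also: bluetongue infection of BSR cells; cell survival read as ATP light after 72 h; 0% = infected wells without compound and 100% = uninfected wells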
# RecA splice inh: blocks M. tuberculosis RecA intein splicing; cell-free RecA intein splicing, fluorescence; inhibition, %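 (about 9 µM by stock and volumes)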; 290,000 tested, 0.75% active; AID 2221; in the data active = inhibition above about 30%; inconclusive = no clear call, values can overlap the other calls;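 also: 0% = vehicle wells and 100% = reference inhibitor control wells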
# Target sequence (P9WHJ3 whole entry, looked up, canonical isoform): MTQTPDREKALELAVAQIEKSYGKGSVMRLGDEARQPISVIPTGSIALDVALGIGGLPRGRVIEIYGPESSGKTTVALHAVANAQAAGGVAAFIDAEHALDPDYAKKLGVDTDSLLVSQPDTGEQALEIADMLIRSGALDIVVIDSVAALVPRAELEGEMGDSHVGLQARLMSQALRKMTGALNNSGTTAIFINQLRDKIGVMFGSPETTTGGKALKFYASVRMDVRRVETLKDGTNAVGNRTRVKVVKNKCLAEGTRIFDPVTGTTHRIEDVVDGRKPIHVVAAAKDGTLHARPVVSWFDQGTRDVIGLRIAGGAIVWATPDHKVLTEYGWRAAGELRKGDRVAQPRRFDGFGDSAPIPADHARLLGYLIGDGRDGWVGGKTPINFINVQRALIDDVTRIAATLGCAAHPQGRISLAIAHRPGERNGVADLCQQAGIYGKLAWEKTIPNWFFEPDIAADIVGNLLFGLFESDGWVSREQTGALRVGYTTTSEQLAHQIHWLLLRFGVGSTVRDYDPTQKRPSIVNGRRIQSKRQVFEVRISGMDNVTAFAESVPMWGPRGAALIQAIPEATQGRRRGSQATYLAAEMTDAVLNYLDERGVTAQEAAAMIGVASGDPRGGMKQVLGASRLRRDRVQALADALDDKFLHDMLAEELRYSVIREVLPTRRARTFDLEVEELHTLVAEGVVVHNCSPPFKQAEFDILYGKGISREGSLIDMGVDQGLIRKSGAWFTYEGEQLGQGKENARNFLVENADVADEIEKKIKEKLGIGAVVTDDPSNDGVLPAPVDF
# Mtb H37Rv: M. tuberculosis H37Rv growth inhibitors, H37Rv strain (AID 1626). M. tuberculosis H37Rv growth inhibition; higher % means a stronger effect. inhibition, % at 10 µM; hits with a dose series show IC50 in µM. 220,000 tested, 0.95% active;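 active = confirmed in a dose series; inconclusive = inhibition above 80% but not taken into the dose series; inactive = below 80% or under 30% at every dose of the series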;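 also: bacteria incubated seven days before Alamar blue readout; 0% = bacteria only wells and 100% = bacteria with antibiotic wells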
# Mtb betalactam: beta-lactam sensitization of Mtb H37Rv; M. tuberculosis H37Rv growth with meropenem, percent inhibition; hits of this screen are not shown here; inhibition, % at 25 µM; 330,000 tested, 0.27% active; AID 434955;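 active = about 74% or more and at least 40 points above the plate without the antibiotic, then above 30% in a dose series; inconclusive = first-round hits that could not be retested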;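 also: growth measured after seven days incubation then overnight dye step; 0% = bacteria only wells and 100% = bacteria with antibiotic; twin plates without the antibiotic show which effects depend on it; some results filed as inactive read as strong as hits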
# YopH PTP inh: blocks Yersinia enterocolitica YopH tyrosine phosphatase; fluorescence Ex485/Em525; inhibition, %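 (about 10 µM by stock and volumes)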; 140,000 tested, 0.16% active; AID 898;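 active = inhibition of 50% or more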;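 also: controls were vehicle for no effect and minimum signal wells for full effect; inactives centre near -20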
# Arbovirus inh repeat: recorded beside Arbovirus inh, whose call it bears; inhibition, %; measured here: 10K subset replicate screen; many hits read low in the repeat;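 first of two repeat runs on a subset; 0% = infected and 100% = uninfected wells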
# Active calls of the source: *; ? = inconclusive; · = not tested or not shown. Some of the compounds tested, so the mix of outcomes need not match the whole.
# Sample of the layout, 6 compounds:
SMILES,Arbovirus inh,RecA splice inh,Mtb H37Rv,Mtb betalactam,YopH PTP inh,others
Cc1ccc(SC(C)C(=O)NCc2ccncc2)cc1 (centres undefined),4.2,0.2,2.5%,-6.0,·,
CCCC(=O)Nc1cc2c3c(c1)CCN3C(=O)CC2,·,-1.1,·,2.2,·,
Fc1ccc(OCCn2cnc(Cl)c2Cl)cc1,·,1.2,6.3%,-4.2,·,
Cc1ccc(-c2nn(C)c(=O)c3ccccc23)cc1CNC(=O)NC1CCCCC1,·,3.2,15.9%,-3.4,·,
C=CCSc1nnc2c(n1)OC(C)=Nc1ccc(Br)cc1-2,5.2,1.4,-5.5%,-4.6,·,
CCOc1ccc(NC(=S)NC(=O)/C=C/c2ccc(Br)cc2)c([N+](=O)[O-])c1,·,-0.9,30.4%,3.0,·,

# The whole of this part, repeating the preview:
SMILES,Arbovirus inh,RecA splice inh,Mtb H37Rv,Mtb betalactam,YopH PTP inh,others
Cc1ccc(SC(C)C(=O)NCc2ccncc2)cc1 (centres undefined),4.2,0.2,2.5%,-6.0,·,
CCCC(=O)Nc1cc2c3c(c1)CCN3C(=O)CC2,·,-1.1,·,2.2,·,
Fc1ccc(OCCn2cnc(Cl)c2Cl)cc1,·,1.2,6.3%,-4.2,·,
Cc1ccc(-c2nn(C)c(=O)c3ccccc23)cc1CNC(=O)NC1CCCCC1,·,3.2,15.9%,-3.4,·,
C=CCSc1nnc2c(n1)OC(C)=Nc1ccc(Br)cc1-2,5.2,1.4,-5.5%,-4.6,·,
CCOc1ccc(NC(=S)NC(=O)/C=C/c2ccc(Br)cc2)c([N+](=O)[O-])c1,·,-0.9,30.4%,3.0,·,
Cc1ccc2sc(N(CCCN(C)C)C(=O)CN3C(=O)c4ccccc4C3=O)nc2c1C,-5.0,-6.1,-1.5%,0.6,·,
CC(=O)C(CC(=O)N1CCCc2ccccc21)C(=O)Nc1ccc(F)cc1 (centres undefined),1.4,0.4,-5.3%,-4.4,-11.5,
O=C(NC1CCCc2c1cnn2-c1cc(F)cc(F)c1)c1ccncc1 (centres undefined),·,4.0,·,-4.3,·,
COC(=O)c1ccc(CN2CCC(CO)(CCOc3ccccc3)CC2)cc1,·,-1.7,·,-6.8,·,
CCOC(=O)c1ccc(N2NC(=O)/C(=C/c3ccc(OC(=O)c4ccco4)c(OC)c3)C2=O)cc1,-18.9,2.6,52.6%,99.1,2.5,
Cc1ccc(N(CC(=O)Nc2ccc3c(c2)OCCO3)S(C)(=O)=O)cc1,-3.1,0.0,-2.9%,0.0,·,
CC1Nc2ccccc2C(=O)N1NS(=O)(=O)c1ccccc1 (centres undefined),3.6,4.1,-5.8%,3.1,-19.6,
CCc1nnc(NS(=O)(=O)c2ccc(NC(=O)Nc3ccc(OC)cc3)cc2)s1,·,3.0,·,1.7,·,
CC(=O)c1c[nH]c(C(=O)NCc2cccc(C(F)(F)F)c2)c1,·,1.2,·,1.7,·,
O=C(CCCCC(=O)Nc1ccc(F)cc1F)Nc1ccc(F)cc1F,·,0.9,·,-4.4,·,
COc1ccccc1C(=O)NC(=O)COC(=O)CCS(=O)(=O)c1ccc(C)cc1,·,0.1,·,-10.2,·,
Clc1ccc(Cn2cccn2)cn1,1.9,0.4,-2.3%,11.7,·,
CC(=O)Nc1cc(Br)ccc1O,-3.6,7.5,3.8%,-2.9,·,
Fc1ccc(/C=N/NC(=S)Nc2cccnc2)cc1F,-2.3,-3.4,3.8%,-3.5,·,
CCOC(=O)c1cccc(Nc2ncnc3ccccc23)c1,1.8,-0.4,8.0%,3.2,-14.7,
O=C(N/N=C/C=C/c1ccccc1)c1ccc(Br)cc1,-5.7,-1.7,47.2%,98.7,-7.2,
Clc1ccc(N/N=C/c2ccncc2)cc1Cl,-7.1,1.1,?,92.9,-18.9,
N#CCCn1c(O)c(N=NC(=O)CNC(=O)c2cccs2)c2ccccc21,·,0.6,1.6%,-10.8,·,
Cc1nc(C(=O)N(C)C)nn1-c1ccc([N+](=O)[O-])cc1,5.5,15.3,1.9%,-3.7,·,
Cc1ccc2cc(C#N)c(N3CCCN(C(=O)c4cnccn4)CC3)nc2c1,·,-1.8,·,-2.0,·,
COc1ccc(-c2cc3c(=O)n(CC(=O)NCCN4CCCC4)nc(C)n3n2)cc1,·,-1.6,·,-0.3,·,
CCn1c(=O)c(=O)[nH]c2c(=O)oc3ccc(S(=O)(=O)Nc4ccc(OC)cc4)cc3c21,·,-1.2,·,-7.2,·,
CCC1CCCCN1CC(O)COCc1cccc(OC)c1 (centres undefined),·,-0.6,·,-8.8,·,
Cc1ccc(C)c(S(=O)(=O)NNC(=O)c2sc(NS(=O)(=O)c3ccccc3)nc2C)c1,·,1.0,·,14.4,·,

# Random excerpt: 3 entries already listed, in no set order.
SMILES,Arbovirus inh,RecA splice inh,Mtb H37Rv,Mtb betalactam,YopH PTP inh,others
Cc1ccc2cc(C#N)c(N3CCCN(C(=O)c4cnccn4)CC3)nc2c1,·,-1.8,·,-2.0,·,
O=C(N/N=C/C=C/c1ccccc1)c1ccc(Br)cc1,-5.7,-1.7,47.2%,98.7,-7.2,
CCOC(=O)c1cccc(Nc2ncnc3ccccc23)c1,1.8,-0.4,8.0%,3.2,-14.7,

# Next part.
SMILES,Arbovirus inh,RecA splice inh,Mtb H37Rv,Mtb betalactam,YopH PTP inh,others
O=C(Nc1nc2ccccc2s1)Nc1ccc([N+](=O)[O-])cc1Cl,·,0.1,·,-3.2,·,
COc1nc(Oc2ccc(/C=N/O)cc2)nc(N(C)C)n1,-0.2,0.1,6.3%,6.3,12.4,
CC(=O)c1cccc(NC(=O)CSc2nc(N3CCOCC3)nc(N3CCOCC3)n2)c1,·,0.5,·,5.3,·,
CCOc1cc(/C=C(\C#N)C(=O)NCC2CCCO2)ccc1OCC(N)=O (centres undefined),15.7,-1.9,-5.6%,-6.7,·,
COc1ccc(Cn2c(=S)[nH]c3ccccc3c2=O)cc1,·,-0.3,·,3.6,·,
CC(=O)c1ccc(O)c(CSc2nncn2C)c1,-1.0,-2.3,-5.6%,-7.1,·,
O=C(c1ccco1)N1CCN(C(=O)c2cc(-c3ccccc3F)no2)CC1,·,-2.9,·,-2.8,·,
COc1ccc(CCC(=O)OCC(=O)Nc2ccc(OC)c(OC)c2)cc1OC,·,-0.9,·,3.5,·,
CC(C)(C)C(O)CN1CCCC1 (centres undefined),8.0,0.1,-9.2%,-2.0,·,
CC1CN(S(=O)(=O)c2ccc(-c3nc4ccccc4s3)cc2)CC(C)O1 (centres undefined),-2.8,0.0,-3.8%,7.1,-33.1,
Cc1ccc(SCc2cc(=O)[nH]c(N3CCN(C)CC3)n2)cc1,-3.0,-7.8,-10.2%,-15.4,-11.0,
O=C(/C=C/c1ccc2ccccc2c1)c1ccoc1,-1.5,3.1,4.4%,65.7,-31.8,
CCCC(=O)Nc1nc2c(c(=O)[nH]1)CCCC2,-2.7,1.9,-8.9%,0.6,-4.4,
CN(C(=O)c1cc(-n2cnnc2)ccc1Cl)c1ccccc1,-2.7,-1.4,10.1%,-5.6,-28.1,
C=CCOc1ccccc1CN1CCSCC1,1.5,-1.2,0.3%,-0.9,-39.9,
NC(=S)N=Nc1c(O)[nH]c2ccccc12,2.1,5.5,2.0%,2.2,-7.4,
O=C1c2ccccc2NC(c2ccccc2Cl)N1N=C1CCCCCC1 (centres undefined),0.6,-2.4,-2.3%,0.6,-26.6,
CCC(=O)Nc1cc(-c2nn(CC(=O)N3CCCCC3)c(=O)c3ccccc23)ccc1N1CCOCC1,-0.1,1.1,-9.4%,3.1,-15.8,
N/C(=N/O)c1nc(N2CCCC2)nc(N(c2ccccc2)c2ccccc2)n1,-4.8,2.5,5.8%,4.1,-2.2,
Clc1cccc(Cl)c1Cn1cnc2c(NCc3ccco3)ncnc21,-10.7,0.5,-0.2%,-8.9,-4.7,
CC1=CC(=C(C#N)C#N)C=C(C)N1CCN1CCNCC1,6.4,-9.9,-5.6%,-9.8,·,
COc1ccc(NC(=O)NCc2cccn2C)c(OC)c1,-10.8,-1.8,2.0%,-13.8,2.9,
CC(O)CNc1ccc([N+](=O)[O-])cc1S(=O)(=O)N1CCOCC1 (centres undefined),6.3,1.4,0.6%,-9.7,·,
On1c2c(c3c4nonc4ccc31)CCCC2,1.1,24.9,3.4%,7.5,-3.4,
c1csc(CNCCCN2CCOCC2)c1,1.4,-0.1,-9.9%,-5.9,-117.2,
O=C(Nn1c(-c2ccccc2)nc2ccccc2c1=O)C1CCC1,-0.8,0.9,-8.1%,-14.6,-23.9,
COc1ccc(CCNC(=O)C2CC(=O)N(c3ccc(F)cc3)C2)cc1OC (centres undefined),6.2,-3.0,1.2%,-15.1,-21.6,
Cc1ccc(C)c(OCc2cc(C(=O)N3CCNC(=O)C3)no2)c1,·,3.1,·,-6.7,·,
O=c1[nH]c(CN2CC=C(c3ccccc3)CC2)nc2scc(-c3cccs3)c12,·,0.5,15.2%,31.4,·,
COCCn1c(-c2ccccc2)nc(=S)c2c1CC(C)(C)OC2,1.0,-4.0,2.2%,23.4,6.0,
CN=C(NC#N)NCCSCc1nc[nH]c1C,-4.5,-0.9,-4.6%,-1.1,-32.4,
O=C(c1ccco1)N1CCN(Cc2nc3cc(Cl)ccc3c(=O)[nH]2)CC1,1.0,3.1,10.0%,-6.0,·,
N=c1ncn(Cc2ccccc2)c2nc(SCCOc3ccccc3)[nH]c12,-4.3,-0.5,0.2%,-6.0,-3.1,
O=C(CN1CCN(c2ccccn2)CC1)Nc1cc(F)ccc1F,·,-0.4,·,-6.4,·,
Cc1ccc(/C=C2\SC(=S)N(CCC(=O)NNS(=O)(=O)c3ccc(C)cc3)C2=O)cc1,14.1,0.3,3.0%,-4.8,-17.7,
CCOc1ccc(OCC(=O)c2c(O)c3ccccc3oc2=O)cc1,-9.9,·,-9.9%,9.4,-31.8,
Cc1sc(NC(=O)CN(CCc2ccccc2)C(=O)C2CC2)c(C(N)=O)c1C,-6.2,-3.6,-4.4%,-11.6,·,
CCn1c2ccccc2c2cc(NC(=O)COC(=O)c3cc(S(N)(=O)=O)c(Cl)cc3Cl)ccc21,-1.8,-1.3,9.7%,-5.8,·,
CC(C)N1C(=O)CCC1C(=O)N1CCCc2ccccc21 (centres undefined),-1.3,3.5,0.4%,0.2,-32.7,
Cc1cccn2cc(CNC(=O)C3CCCCC3)nc12,5.8,-1.6,-1.0%,-1.4,5.2,
COC(=O)c1sccc1NC(=O)c1ccccc1Br,·,2.8,·,4.6,·,
O=C(Nc1nnc(COc2ccc(Cl)cc2)s1)c1ccco1,-22.3,0.3,-2.9%,-6.3,·,
CSc1ccccc1OCc1cc(C(=O)N2CCN(Cc3nccn3C)CC2)no1,·,-0.3,·,-1.3,·,
CC(Oc1ccc2oc(-c3ccccc3)c(C(=O)O)c2c1)C(=O)O (centres undefined),3.4,2.2,-4.7%,5.9,-28.1,Arbovirus inh repeat=5.0
C[n+]1cc(-c2ccccc2)n2c1CCCCC2,-3.3,-0.8,-3.5%,-5.7,-29.0,
CCCC(=O)Nc1cc(Cl)ccc1N1CCN(C(=O)CC)CC1,11.8,-0.7,-7.1%,4.1,-27.0,
